From PubChem BioAssay
ugtP null kill – growth inhibition of ugtP-null S. aureus, primary screen, RN4220 ugtP deletion, OD600 | AID 1259309, 2017 | 16 h; some inactives read as strong as hits | 330,000 tested, 0.54% active | growth inhibition, % (concentration not given with the values);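 active = z-score under -3 and OD600 up to 0.15 on both plates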;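 note: plate controls were untreated wells for no effect and antibiotic for full effect; wells of about 80 µL received 100 nL stock; the first replicate is given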
RN4220 kill – growth inhibition of S. aureus RN4220, primary screen, OD600; 330,000 tested, 0.33% active; 16 h; AID 1259311, 2017; inhibition, % (no concentration beside the values);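 active = z-score of -3 or lower and OD600 up to 0.18 on both plates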;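 note: plate controls were untreated cells for no effect and reference antibiotic for full effect; stock transfer was 100 nL into about 80 µL; one replicate is shown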
BJeLR viability – MLPCN primary cell-based screen for lethality selective to Ras in HRASV12 cells; BJeLR (HRASV12) viability, CellTiter-Glo ATP luminescence, 48 h; reference of the scale not given here; inhibition, % (no concentration beside the values); 300,000 tested, 0.17% active; AID 1554, 2009;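 active = replicate mean above 50%; inconclusive = above 50% but judged a plate artefact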;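 note: 50 nL library stock added to about 25 µL; numbers are from one replicate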
Bead autofluor – flagged as autofluorescent in microsphere protease counterscreen | compound autofluorescence counterscreen, microsphere flow cytometry; hits give high values | fluorescence intensity (test concentration not listed) | 360,000 tested, 3.1% active | AID 624483;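 active = at least 3 SD above the mean of all compounds, about 16000 in these data; inconclusive = too few beads counted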;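 note: 100 nL of 1 mM stock went into each well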
PrP UTR inh – inhibition of PrP 5' UTR reporter expression; cell-based PrP 5' UTR mRNA reporter, plate reader; inhibition, % (concentration not given with the values); 340,000 tested, 0.35% active; AID 488862, 2010;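 active = every replicate at 50% or more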;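 note: 0 = median of the neutral control wells; tested in H4 reporter cells; numbers are from one replicate; inactives centre near -14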
Mtb hypoxia rep – PubChem AID 1159583; M. tuberculosis hypoxia-regulated fluorescent reporter, fluorescence; fluorescence inhibition, % (concentration not given with the values); 300,000 tested, 0.1% active;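 active = 35 to 45% if threefold the growth effect, above 45% if 1.5-fold the growth effect; inactive = the rest, general growth blockers included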;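 note: wells of about 50 µL received 100 nL stock; 0% = vehicle wells and 100% = reference inhibitor wells; whole bacteria with a GFP reporter of the hypoxia response; strong numbers were not always called active; many hits fall short of the cut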
Mtb hypoxia rep growth – also measured in Mtb hypoxia rep; calls as there; growth inhibition, %; measured here: M. tuberculosis growth (absorbance);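 0% = vehicle and 100% = reference antibiotic; read after six days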
* hit, by the source's call; ? = inconclusive; nt = not tested or not shown. No enrichment for hits. Share with any hit: about 3.9%.

SMILES | ugtP null kill | RN4220 kill | BJeLR viability | Bead autofluor | PrP UTR inh | Mtb hypoxia rep | Mtb hypoxia rep growth
CC(Cl)C(=O)NNc1cccc(Cl)n1 (stereo unspecified) | 7 | 1.9 | -4 | 2180 | 5 | nt | nt
CC(NC(=O)c1sc2cc([N+](=O)[O-])ccc2c1Cl)C(C)(C)C (stereo unspecified) | -2 | 9.5 | 5 | 10564 | -15 | nt | nt
CC(C)(C)C(=O)NC1CCN(C(=O)N2CCCC2)CC1 | 4 | 7.1 | 13 | 3967 | -37 | 0 | 6
COc1ccc(C(=O)CN2CCN(S(=O)(=O)c3cccc([N+](=O)[O-])c3)CC2)cc1 | 1 | 0.8 | 0 | 2191 | -11 | -9 | 13
CCOc1ccc2[nH]c(C)c(CN3CCN(C)CC3)c(=O)c2c1 | -3 | 5.1 | -7 | 9192 | -26 | 16 | 8
Cc1ccc(/C=C/C(=O)OCc2nc(N)nc(Nc3ccccc3C)n2)o1 | -1 | 7.1 | 6 | 4173 | -24 | 7 | 2
COc1ccc(C2C(C(=O)c3sc(C)nc3C)=C(O)C(=O)N2CCCn2ccnc2)cc1OC (stereo unspecified) | 4 | 1.1 | 0 | 20435* | -2 | 2 | 5
O=C(Nc1nc2c(Cl)ccc(Cl)c2s1)C1CC1 | -7 | 11 | -4 | 5905 | -9 | -9 | 14
O=C(NC1=NCCS1)c1cccc(Br)c1 | 2 | 2.5 | -17 | 3330 | -75 | 8 | 3
O=C(NCc1ccco1)C(=O)NCC1OCCN1S(=O)(=O)c1cc(F)ccc1F (stereo unspecified) | 14 | 6.3 | 9 | 5851 | -12 | 9 | 10
CC(C)[C@H](NC(=O)OCc1ccccc1)C(=O)OCC(=O)N1CCN(c2ccc(F)cc2)CC1 | 5 | 0.5 | nt | ? | 0 | 1 | 2
O=C(COc1ccc(S(=O)(=O)N2CCCC2)cc1)NCc1ccccn1 | -1 | -3.3 | -13 | 3747 | -22 | -5 | -8
CCN(CC(=O)Nc1c(F)cccc1F)C(=O)CSc1nc(C)cc(C)n1 | -4 | -1.9 | 8 | 5415 | -10 | -2 | 5
Cc1ccc(NC(=O)COC(=O)CC2CC3CCC2C3)cc1S(=O)(=O)N1CCOCC1 (stereo unspecified) | -2 | 2.3 | nt | 3971 | -15 | 4 | 10
Cc1noc(C)c1S(=O)(=O)N1CCC(C(N)=O)CC1 | 5 | -0.6 | -9 | 6360 | -2 | 1 | 4
CCC(C)NC(=O)CSc1nnc(-c2cc(-c3ccc(C)cc3)nc3ccccc23)n1N (stereo unspecified) | 7 | -7.1 | -2 | 2673 | -10 | nt | nt
CCc1cc2cc(C)ccc2nc1SCC(=O)N1CCN(C(=O)c2ccco2)CC1 | -11 | 1.9 | nt | 3630 | -9 | nt | nt
Cc1c(C(=O)NC2=NCCS2)cccc1[N+](=O)[O-] | -2 | 0.8 | 3 | 3595 | -15 | 3 | -7
COc1ccc(CCNC(=O)c2noc(C(C)C)c2[N+](=O)[O-])cc1OC | 7 | -1.4 | 2 | 3683 | -17 | -3 | -1
CCOC(=O)C1(C)/C(=N/Nc2ccc(S(N)(=O)=O)cc2)C(=O)C(=O)N1c1ccccc1 (stereo unspecified) | 1 | 8.3 | -2 | 2688 | -21 | 14 | 2
C=CCOc1ccc(CNCCO)cc1OCC | 0 | 3.9 | 0 | 2195 | -9 | 2 | 11
CC1(C)Cc2c(sc3nc4n(c(=O)c23)CCC4)CO1 | -2 | -15 | 14 | 3380 | -21 | 5 | 8
O=C(O)c1cc(S(=O)(=O)N(Cc2ccccc2)c2ccc(Cl)cc2)ccc1Cl | 20 | 6.9 | -3 | 3637 | -11 | -8 | -10
Cc1ccc(N2C(=O)[C@@H]3[C@H](C2=O)C2CCCN2[C@@H]3C(=O)c2ccccc2)cc1 (stereo partly specified) | -10 | -2.9 | -15 | 4131 | -25 | 2 | 12
CC(C)Oc1ccc(CCC(=O)N/N=C/c2ccc3c(c2)OCO3)cc1 | nt | nt | 0 | 4142 | -4 | nt | nt
O=C(N/N=C/c1c(O)n(CCC2=CCCCC2)c(=O)[nH]c1=O)c1ccccc1 | 21 | 16 | 16 | 2048 | -15 | 4 | -2
COc1cc(NC(=O)c2c3c(nc4ccccc24)CCC3)cc(OC)c1 | -4 | 0.0 | -8 | 8315 | -6 | 0 | -4
CCCCN(C(=O)CSCc1c(C)noc1C)c1c(N)n(CCCC)c(=O)[nH]c1=O | 4 | -0.1 | 3 | 5351 | -4 | 6 | 6
CCc1ccc(NC(=O)C2CCN(C(=O)N3CCOc4ccccc43)CC2)cc1 | -5 | -6.7 | 7 | 5777 | -3 | 10 | 2
COc1ccc(C)cc1N(CC(=O)NN=Cc1ccccc1C(=O)O)S(=O)(=O)c1ccccc1 | -6 | 0.7 | nt | nt | nt | -4 | 5
CN=CC1=C(O)CC(C)(C)CC1=O | -3 | 0.9 | 12 | 2581 | -4 | nt | nt
CCN1CCN(S(=O)(=O)c2ccc(Cl)c(C(=O)N(C)Cc3cccc(Cl)c3Cl)c2)CC1 | 3 | -0.4 | 3 | 5971 | -22 | 0 | 3
O=C(COc1ccc2c(c1)CCC2)N1CCN(c2cccc(C(F)(F)F)c2)CC1 | -8 | 3.6 | 0 | 2157 | -6 | 2 | 3
O=C(Cc1c(Cl)cccc1Cl)OCC(=O)N1CCOCC1 | 6 | 7.7 | nt | 8116 | -18 | 6 | 8
COc1ccccc1C1C2=C(N=C3SCC(=O)N31)c1ccccc1CC2 (stereo unspecified) | -3 | 1.8 | 7 | 4549 | -6 | nt | nt
O=C1CC(c2ccsc2)c2cc3c(cc2N1)OCCO3 (stereo unspecified) | 7 | -1.6 | 3 | 5958 | 5 | 6 | 8
O=C(CN(c1ccccc1Cl)S(=O)(=O)c1ccccc1)NN=Cc1ccccc1C(=O)O | 7 | 16 | nt | nt | nt | 6 | 2
CC1=CC(=O)C(C(C)C)=C/C1=N/OC(=O)c1cccc([N+](=O)[O-])c1 | nt | nt | 0 | 7872 | -30 | nt | nt
Nc1nonc1-n1nnc(C(=O)NN=Cc2cccs2)c1CSc1ccccc1 | 12 | 3.5 | nt | nt | nt | -12 | -11
CC(C)(C)c1nc(SCC(=O)NNC(=O)c2ccccc2)c2ccccc2n1 | 9 | 9.0 | -6 | 2747 | -1 | -17 | -5
COc1cc(OC)c(C2C(C#N)=C(C)NC(C)=C2C#N)c(C(=O)O)c1 | -3 | -1.2 | -7 | 3798 | -2 | -8 | 7
CC(=O)Oc1ccc2c(=O)oc(-c3ccccc3C)nc2c1 | 1 | 9.4 | -3 | 4053 | -21 | 15 | 9
CC1C(=O)CCCCCCCCCC2C1(N1CCOCC1)CS2(=O)=O (stereo unspecified) | 6 | 10 | -4 | 9529 | -13 | 0 | 9
N#Cc1ccc(/C=C2\CCCCn3c2nc2cc(C(=O)O)ccc2c3=O)cc1 | -1 | 5.9 | -6 | 3535 | -14 | 1 | 5
Cc1ccc2cc(C#N)c(SCC(=O)NCC3CCCO3)nc2c1 (stereo unspecified) | -1 | 2.0 | -3 | 2634 | 2 | nt | nt
Cc1cnc(C(=O)OCC(=O)Nc2cc(Cl)cc(Cl)c2)cn1 | -1 | 1.9 | -9 | 13496 | -2 | 10 | 4
Nc1[nH]ncc1-c1ccccc1 | -6 | 5.5 | -1 | 2573 | -6 | 0 | -3
COc1ccc(-n2nc(C(=O)NCC(=O)NCCc3ccc(OC)c(OC)c3)c3ccccc3c2=O)cc1Cl | -5 | -2.9 | 1 | 3010 | -1 | -1 | 9
O=c1c2ccccc2nnn1CCN1CCOCC1 | 13 | 1.3 | -5 | 2029 | -23 | 5 | 5
CC(C)(C)OC(=O)NCCCCCc1nnc(SCc2c(F)cccc2Cl)o1 | nt | nt | 9 | 3968 | -37 | nt | nt
CCN(CC)CCCNC(=O)c1nn(-c2ccc(OC)cc2OC)c(=O)c2ccccc12 | -1 | -3.7 | -8 | 4514 | -20 | nt | nt
COCCNC(=O)c1ccc2c(=O)n(CCCN3CCCC3=O)c(=S)[nH]c2c1 | 4 | -2.8 | -2 | 3046 | -16 | 0 | 2
CC(C)(C)n1ncc2c(=O)n(CC(=O)NCCc3ccccc3)cnc21 | 11 | 5.3 | 9 | 2515 | -6 | 2 | 4
CC(C)C[C@H](NC(=O)c1[nH]cnc1C(=O)N[C@H](C)c1ccccc1)C(=O)OCc1ccccc1 | nt | nt | -14 | 4054 | -17 | nt | nt
COc1ccc(C#Cc2c(-c3ccc(OC)cc3)oc3ccc(-c4ccc(OC)cc4)cc23)cc1 | -9 | 4.5 | -8 | 3762 | -5 | 7 | 9
CCC1CCCCN1C(=O)Cn1c(=O)n(CCC(=O)NCc2ccco2)c(=O)c2sccc21 (stereo unspecified) | 2 | 1.8 | -8 | 10086 | -21 | 1 | -4
CCCCCCCNC(=O)C1(CC2CC(c3ccc(Cl)cc3)=NO2)CCN(C(=O)c2ccccc2)CC1 (stereo unspecified) | 3 | -4.8 | 12 | 4244 | -29 | 17 | -2
O=C(COc1ccc(F)cc1Cl)Nc1nc(-c2ccccn2)cs1 | nt | nt | 4 | ? | -18 | nt | nt
O=C(COC(=O)CCSc1ccccc1Cl)Nc1ccc(F)cc1F | 13 | -0.3 | -15 | 2349 | -36 | 9 | 5
COc1ccccc1OCc1ccc(C(=O)NN)cc1 | -2 | 3.8 | 9 | 4663 | -6 | -12 | -2

Looked up by compound from the entries so far (5):
SMILES | ugtP null kill | RN4220 kill | BJeLR viability | Bead autofluor | PrP UTR inh | Mtb hypoxia rep | Mtb hypoxia rep growth
CC(C)C[C@H](NC(=O)c1[nH]cnc1C(=O)N[C@H](C)c1ccccc1)C(=O)OCc1ccccc1 | nt | nt | -14 | 4054 | -17 | nt | nt
COc1ccc(C#Cc2c(-c3ccc(OC)cc3)oc3ccc(-c4ccc(OC)cc4)cc23)cc1 | -9 | 4.5 | -8 | 3762 | -5 | 7 | 9
O=C(COC(=O)CCSc1ccccc1Cl)Nc1ccc(F)cc1F | 13 | -0.3 | -15 | 2349 | -36 | 9 | 5
COc1ccc(-n2nc(C(=O)NCC(=O)NCCc3ccc(OC)c(OC)c3)c3ccccc3c2=O)cc1Cl | -5 | -2.9 | 1 | 3010 | -1 | -1 | 9
COc1ccccc1OCc1ccc(C(=O)NN)cc1 | -2 | 3.8 | 9 | 4663 | -6 | -12 | -2

(list continues)
SMILES | ugtP null kill | RN4220 kill | BJeLR viability | Bead autofluor | PrP UTR inh | Mtb hypoxia rep | Mtb hypoxia rep growth
Cc1cc(C)c(C)c(S(=O)(=O)N2CCN(CC(=O)c3c(N)n(Cc4ccccc4)c(=O)n(C)c3=O)CC2)c1C | -4 | 0.6 | -1 | 8685 | -19 | 0 | 4
Cc1ccccc1OCC(=O)NC(=S)Nc1ccc(N2CCOCC2)c(Cl)c1 | 0 | 0.1 | 1 | 2532 | -25 | nt | nt
COc1ccc(C2Nc3ccccc3NC3=C2C(=O)CC(C)(C)C3)cc1 (stereo unspecified) | -3 | -2.6 | 12 | 3708 | 6 | -9 | 4
CCOc1ccc(OCCC(=O)N(CC)CC(=O)NCc2cccs2)cc1 | 6 | 1.0 | nt | 3962 | -19 | 20 | 28
C=C(C)CNC(=S)NNC(=O)c1ccc(Br)cc1 | 7 | 2.4 | 3 | 8013 | -23 | 10 | 5
COc1ccccc1CC(=O)NCCc1c[nH]c2ccccc12 | 4 | 1.3 | -3 | 6200 | -9 | 2 | -8
C=CCNC(=O)c1onc(CSc2cccc(OC)c2)c1C(=O)NCC=C | 0 | 9.3 | 7 | 3932 | -6 | 6 | 2
COC(C/C=C/[C@@H](O)[C@@H](C)OCc1ccccc1)OC | nt | nt | 9 | 4347 | -12 | nt | nt
O=C(Oc1ccccc1Cl)c1ccccc1P(=O)(O)O | -1 | 0.8 | 13 | 11526 | -15 | 12 | 4
C/C(=N/NC(=O)c1nnn(-c2nonc2N)c1COc1ccccc1)c1ccccc1 | nt | nt | 1 | 5369 | -24 | nt | nt
Cc1ccc(C)c(NC(=S)N2CCCCCC2)c1 | -3 | -3.0 | 3 | 4605 | -18 | nt | nt
COc1ccc(N2CCN(c3ncnc4sc(C(=O)NCC5CCCO5)c(C)c34)CC2)cc1 (stereo unspecified) | 15 | 0.5 | -7 | 5444 | 2 | -5 | 16
CCN(CC)c1ccc(C=NNC(=O)c2ccco2)cc1 | 1 | 4.0 | nt | nt | nt | 3 | 9
Cc1ccc(NC(=O)CN(Cc2ccco2)Cc2ccccc2O)cc1C | -16 | -9.1 | -7 | 3568 | -25 | -11 | -1
